# Screens from PubChem BioAssay.
# GLA inh pH 4.5 = alpha-galactosidase A (human) inhibition, pH 4.5. P06280. purified enzyme, 4-MU-alpha-Gal fluorescence, pH 4.5. activity change, negative = inhibition, % at 105 µM. 230,000 tested, under 10 active; inconclusive = small, poorly fitted or top-dose-only inhibition, or a rising curve; inactive = flat fitted curve, though single readings scatter; no compound was filed as active;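 also: 0% = full activity with enzyme and -100% = basal without enzyme; dose as in the result columns while the protocol names 77 µM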
# Target sequence (P06280 whole entry, looked up): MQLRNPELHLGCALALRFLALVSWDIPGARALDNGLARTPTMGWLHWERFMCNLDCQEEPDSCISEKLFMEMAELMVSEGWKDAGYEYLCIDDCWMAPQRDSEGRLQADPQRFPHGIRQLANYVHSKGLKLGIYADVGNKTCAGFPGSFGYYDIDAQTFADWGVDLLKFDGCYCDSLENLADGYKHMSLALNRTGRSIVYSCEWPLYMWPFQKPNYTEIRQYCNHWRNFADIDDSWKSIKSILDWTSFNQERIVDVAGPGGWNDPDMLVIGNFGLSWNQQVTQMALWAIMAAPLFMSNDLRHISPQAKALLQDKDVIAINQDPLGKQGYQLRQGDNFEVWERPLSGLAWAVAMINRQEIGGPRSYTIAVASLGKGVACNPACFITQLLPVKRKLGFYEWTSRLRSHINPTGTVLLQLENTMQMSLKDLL
# Rango dissoc inh = prevents RanGTP from dissociating the Rango-importin beta complex | 340,000 compounds, 0.071% hits | Biochemical FRET Rango-importin beta, RanGTP-induced dissociation | Potency, µM (series often up to 46.1 µM), for the others: at the highest dose activity change, negative = inhibition; active means falling FRET ratio curve, often poorly fitted, with flat reads before Ran was added; inconclusive means other falling curves, or compound fluorescence or quenching; inactive means flat or rising ratio curve;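 also: potency is read from the fitted curve at half-maximal effect; % of control where 0% means no effect; nearly all actives have a fitted effect of over 45% in size; -100% = wells without RanGTP and RCC1; the record marks most hits as doubtful in a second field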
#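 Rango FRET biosensor (snurportin-1 IBB flanked by N-terminal EYFP and C-terminal CFP10) at 0.1 uM, with 0.25 uM importin beta in PBS, 1mM DTT, 0.02% Tween-20, 0.1% BSA. 0.6 uM Ran, 2mM GTP and 0.2 uM RCC1 were then added for 45 min at room temperature. Inhibition read as loss of FRET rise.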
# Rango-impB inh = Rango-importin beta binding inhibition; Q14974; Rango CFP/YFP FRET sensor + importin beta, 45 min; AID 540263; 340,000 compounds, 0.031% hits; Potency, µM (series often up to 92.2 µM), for inactives: at the top dose inhibition of complex formation; active = rising FRET ratio curve, often small or poorly fitted; inconclusive = mostly compound fluorescence or quenching in the first reads; inactive = flat curves in all reads;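 also: potency is read from the fitted curve at half-maximal effect; 0% = DMSO wells and 100% = buffer wells lacking importin beta; nearly all actives have a fitted effect of over 15% in size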
#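 Inhibition scored from the CFP 486 nm/YFP 530 nm FRET ratio 45 min after adding 0.125 microM importin beta to 50 nM Rango biosensor preincubated 5 min with compound (room temperature, PBS with DTT, Tween-20, BSA). No-importin wells as positive control.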
# miR-21 FLuc = raises the signal of a miR-21 reporter. AID 2288. Potency, µM (series often up to 38.3 µM), without a hit: at the top dose reporter change, positive = more light. 340,000 tested, under 10 active. HeLa miR-21 FLuc reporter, luciferase, 48 h; active = well fitted rising curve with a large enough effect; inconclusive = small, poorly fitted or top-dose-only effect; inactive = no such curve, though single readings can be large or run the other way;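 also: % of control where 0% means no effect; miR-21 action dims this reporter so a rising signal means less miR-21 action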
#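 Luminescence from a firefly luciferase reporter carrying a miR-21 binding site downstream, stably expressed under a CMV promoter in HeLa cells that make miR-21 endogenously, reports miRNA modulation after 48 h compound exposure up to approximately 40uM final.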
# The depositor's hits bear a star; ? = inconclusive; / = not tested or not shown.
SMILES,GLA inh pH 4.5,Rango dissoc inh,Rango-impB inh,miR-21 FLuc
O=C(NCC1COc2ccccc2O1)c1cccc(S(=O)(=O)N2CCOCC2)c1 (centres undefined),/,16%,2.3%,/
CCCNC(=O)Nc1ccc2c(c1)nc(C)n2C,-12,4%,1.0%,-32%
O=C(CCc1ccccc1)NC(=S)Nc1cccc(Br)c1,7,12%,-0.9%,-5%
Cc1nn(C)c(C)c1N=Cc1c(O)ccc2ccccc12,5,?,?,-1%
CCOc1c(Cl)cc(/C=C/C(=O)N(CC)CC(=O)Nc2ccc(NC(C)=O)cc2)cc1OC,/,6%,-0.8%,/
CC(C)c1ccc(/C=N/n2c(COc3ccccc3)n[nH]c2=S)cc1,/,1%,?,-5%
O=C(c1ccc(F)cc1)N(Cc1cccs1)C1CCS(=O)(=O)C1 (centres undefined),/,-3%,?,0%
O=C(C1CC1)N1CCc2cc(S(=O)(=O)N3CCN(c4ccccc4)CC3)ccc21,/,?,?,-1%
CC12CCC(=O)C=C1CCC1C2CCC2(C)C1CC1C3C(=O)N(Cc4ccccc4)C(=O)C3CC(=O)C12 (centres undefined),/,8%,-0.2%,/
C=C(Cl)COC(=O)[C@H]1C2C=CC(C2)C1C(=O)O (some centres undefined),3,11%,1.0%,-5%
CC1CCCC(C)N1C(=O)C1CCCCC1 (centres undefined),6,7%,5.8%,0%
O=C1C2C3C=CC(C3)C2C(=O)N1c1ccc(Cc2ccncc2)cc1 (centres undefined),-7,-3%,-3.3%,3%
CCOC(=O)N1CCC(N2Cc3cccc(C(=O)Nc4ccc(CC)cc4)c3C2=O)CC1,-3,0%,-0.1%,-4%
CCC(C)NC(=O)Cn1nc(C(F)(F)F)c2c1CCC2 (centres undefined),5,-10%,0.1%,-5%
S=C(Nc1ccccc1)Nc1cc(Cl)ccc1Oc1ccccc1,5,-15%,-1.5%,-5%
Cc1ccc(C(C(=O)NC(C)(C)C)N(CC2CCCO2)C(=O)c2csnn2)cc1 (centres undefined),/,-2%,6.4%,-1%
O=C(Cc1ccccc1)N1CCCC(c2nc(-c3cccs3)no2)C1 (centres undefined),-2,-2%,4.1%,-1%
NC(=O)CC(NC(=O)c1ccccc1)c1ccc(NCCc2ccc(F)cc2)c([N+](=O)[O-])c1 (centres undefined),3,-6%,-1.9%,0%
CCC(=O)Nc1ccc(C(=O)NNC(=O)C(c2ccccc2)c2ccccc2)cc1,0,0%,-0.2%,-7%
O=C1c2ccccc2NC(c2cccc(F)c2)N1Cc1ccco1 (centres undefined),-6,1%,-2.5%,-2%
COc1cccc2sc3ccc(NCCC4CCCN4C)cc3c(=O)c12 (centres undefined),/,?,?,-28%
CCc1nn(CC(=O)NCCCN(CC)Cc2ccccc2)c(=O)c2cc3sccc3n12,-8,-7%,4.6%,-1%
O=C(c1ccc(-c2cccc(C(F)(F)F)c2)o1)N1CCCC(C(F)(F)F)C1 (centres undefined),/,22%,-2.0%,/
CC/C(=N/Nc1ccccc1Cl)c1cnnc(-c2ccccc2)n1,0,12%,0.8%,-7%
Cc1cc(C)nc(NC(=O)c2c(-c3ccccc3Cl)noc2C)c1,-2,?,-2.8%,-3%

# 6 of the entries above in order of the Rango dissoc inh value, highest first.
SMILES	GLA inh pH 4.5	Rango dissoc inh	Rango-impB inh	miR-21 FLuc
O=C(c1ccc(-c2cccc(C(F)(F)F)c2)o1)N1CCCC(C(F)(F)F)C1 (centres undefined)	/	22%	-2.0%	/
C=C(Cl)COC(=O)[C@H]1C2C=CC(C2)C1C(=O)O (some centres undefined)	3	11%	1.0%	-5%
CC12CCC(=O)C=C1CCC1C2CCC2(C)C1CC1C3C(=O)N(Cc4ccccc4)C(=O)C3CC(=O)C12 (centres undefined)	/	8%	-0.2%	/
CCOc1c(Cl)cc(/C=C/C(=O)N(CC)CC(=O)Nc2ccc(NC(C)=O)cc2)cc1OC	/	6%	-0.8%	/
CCCNC(=O)Nc1ccc2c(c1)nc(C)n2C	-12	4%	1.0%	-32%
O=C1C2C3C=CC(C3)C2C(=O)N1c1ccc(Cc2ccncc2)cc1 (centres undefined)	-7	-3%	-3.3%	3%

# Next section.
SMILES,GLA inh pH 4.5,Rango dissoc inh,Rango-impB inh,miR-21 FLuc
CCOc1ccccc1NC(=O)c1ccc2c(=O)n3c(nc2c1)CCCCC3,/,11%,-3.4%,-8%
CCn1c2ccccc2c2nnc(SCC(=O)NC(CC(C)C)C(=O)OC)nc21 (centres undefined),3,-6%,5.4%,-1%
Cc1cccc(NC(=O)NNC(=O)c2ccc3ccccc3c2O)c1,/,3%,-1.5%,0%
COc1ccc(NC(=S)NCCSc2ccc(Cl)cc2)c(OC)c1,1,-14%,-1.0%,-3%
C/C(=N\NC(=O)CC1N=C(Cc2ccccc2)NNC1=O)c1ccc(Cl)cc1Cl (centres undefined),-7,2%,6.2%,19%
Cc1nc2nc(-c3ccco3)[nH]n2c(=O)c1C,-4,13%,?,1%
Cn1cnnc1SCC(=O)NN1C(=O)NC(C)(c2ccccc2)C1=O (centres undefined),9,-4%,-9.2%,1%
O=C(CSc1nc2ccccc2[nH]1)N=Nc1c(O)[nH]c2ccccc12,4,-2%,0.0%,-36%
CCc1nnc(NC(=O)c2cccc(S(=O)(=O)N3CCN(C(C)=O)CC3)c2)s1,/,0%,3.5%,/
C/C(=N\NC(=O)c1ccc(NS(=O)(=O)c2cccs2)cc1)c1ccc(Cl)cc1,4,10%,-2.5%,-11%
O=C1C=C(c2ccc3ncccc3c2)C[C@@H](c2ccc(F)cc2)C1,/,-11%,-3.1%,/
COCCN(C(=O)COC(=O)CCc1nc2ccccc2s1)c1c(N)n(Cc2ccccc2)c(=O)[nH]c1=O,/,-8%,-6.2%,0%
CCc1nnc(NC(=O)CSc2nc3cc4c(cc3cc2CC)OCCO4)s1,7,7%,3.9%,-7%
COc1ccc(NC(=O)CSc2nc3c([nH]c4ccccc43)c(=O)n2C)c(OC)c1,/,7%,1.2%,2%
COC(=O)Nc1ncc(CN2CCc3ccccc3C2)s1,-12,0%,-4.5%,-2%
O=C(COc1ncnc2sccc12)N1CCc2ccccc2C1,13,3%,-0.1%,-4%
O=C(NCC(c1ccco1)N1CCc2ccccc2C1)c1ccc(Br)cc1 (centres undefined),/,-14%,-0.3%,/
CCCOCc1ccc(O)c2ncccc12,-8,13%,2.3%,28%
CCOC(=O)C(NC(=O)Nc1ccc(F)cc1)(OCC)C(F)(F)F (centres undefined),1,7%,-2.9%,0%
COc1ccc(C(=O)Nc2cc(OC)c(Cl)cc2OC)cc1,-5,-21%,1.8%,-25%
CCCOC(=O)C1C2C=CC3(CN(c4cccc(Cl)c4)C(=O)C13)O2 (centres undefined),-2,19%,6.3%,-10%
CCOC(=O)c1c(N)nn(C(=O)CC)c1-c1ccccc1,7,-1%,3.8%,-4%
O=C(NCC(=O)N(Cc1cccs1)C(C(=O)NC1CCCCC1)c1cccnc1)c1ccco1 (centres undefined),-20,0%,-0.4%,-1%
COc1ccc(OCC(=O)NC(=S)N2CCCc3ccccc32)cc1,-2,?,?,-27%
O=C(c1ccc(Br)cc1)c1cn[nH]c1-c1ccccc1O,/,9%,3.6%,-6%
# Next entries.
SMILES,GLA inh pH 4.5,Rango dissoc inh,Rango-impB inh,miR-21 FLuc
CCC(Sc1nncn1C)C(=O)Nc1cc(C)on1 (centres undefined),7,10%,1.7%,0%
C=C(C)CSc1nc2ncc(Cl)cc2[nH]1,9,-7%,0.6%,-14%
Cc1cc2cc(C)c3nnc(SCC(=O)N4CCN(C(=O)c5ccco5)CC4)n3c2cc1C,/,-2%,3.6%,/
O=C(CN1CCCCCC1)Nc1ccccc1OC(F)F,/,22%,0.4%,-4%
Cc1ccc(N=C2CCCCCN2C)c(C#N)c1,2,7%,4.2%,-15%
CN(C)C(=O)CSc1n[nH]c(=O)[nH]c1=O,-2,-3%,2.4%,-2%
O=C(Nc1cccnc1Cl)C1c2ccccc2Oc2ccccc21,-20,1%,-5.1%,-15%
Cc1ccc(N(CC(O)Cn2nc(C)cc2C)S(=O)(=O)c2ccc3ccccc3c2)cc1 (centres undefined),-2,1%,-0.2%,0%
CN(C)S(=O)(=O)c1ccc(Cl)c(C(=O)NC2CCCCCCC2)c1,/,29%,-1.2%,6%
Cc1ccc(C(=O)Nc2cc3[nH]c(=O)oc3cc2C)cc1,/,-15%,-1.3%,-21%
Cc1cc(C=C2C(=O)c3ccccc3C2=O)c(C)n1C,-11,?,?,-61%
Cc1nc(CNS(=O)(=O)c2ccccc2F)cs1,1,-2%,2.7%,-1%
Cc1cc(C)nc(N/N=C/C2=C(N3CCOCC3)C(=C\c3ccc(Cl)cc3)/CC2)n1,-2,?,?,0%
CN(C)S(=O)(=O)c1cccc(C(=O)Nc2ccc3c(c2)CCC3)c1,/,4%,?,-36%
COc1ccc(NC(=O)CCc2c(C)nc3nc(C)nn3c2C)cc1,6,-1%,1.3%,0%
COC(=O)c1cc(Br)c(=O)n(-c2cccc(F)c2)c1,-7,6%,4.8%,1%
O=S(=O)(NCCN1CCCC1)c1ccc(Cl)cc1,/,11%,0.9%,-2%
COc1ccc(N2CC(NC(=O)N3CCc4ccccc43)CC2=O)cc1OC (centres undefined),2,-10%,-1.4%,-1%
CN(C1CCS(=O)(=O)C1)S(=O)(=O)c1ccc2ccccc2c1 (centres undefined),/,-1%,-3.6%,/
Cc1cccc(NC(=O)CN2CCSc3ccccc32)c1,3,-2%,1.0%,-28%
Cc1ccc2c(c1)[C@@H]1CN(C)CC[C@@H]1N2S(=O)(=O)c1ccc(F)cc1,2,19%,?,-6%
O=C1CCC(C(=O)N(CCO)Cc2ccccc2)CN1CCCN1CCOCC1 (centres undefined),/,1%,-4.9%,0%
CC(=O)c1c(C)[nH]c(=S)c(C#N)c1-c1ccc(Cl)cc1,1,-11%,-1.2%,-12%
COCC(=O)N(Cc1cc2ccc(C)cc2[nH]c1=O)c1ccccc1C,/,-11%,0.0%,-5%
CN1CCc2ccccc2C1Cc1ccccc1NC(=O)c1sc2ccccc2c1Cl (centres undefined),-12,42%,?,-45%
# The results go on.
SMILES,GLA inh pH 4.5,Rango dissoc inh,Rango-impB inh,miR-21 FLuc
COc1ccccc1CN1CC(C(=O)N(C)Cc2nc(C)cs2)CCC1=O (centres undefined),/,-5%,-1.8%,-12%
O=c1ccn(-c2cccc(C(F)(F)F)c2)nc1-c1ccn(-c2cccc(Cl)c2)n1,-1,20%,-1.0%,-7%
O=C(c1ccc(F)cc1)N1CCOC(c2nc(-c3ccc(F)cc3)no2)C1 (centres undefined),/,5%,2.2%,/
Oc1cccc2cnccc12,1,-1%,-0.1%,7%
CCOC(=O)N1CCN(c2c(NCCCN3CCCC(C)C3)c(=O)c2=O)CC1 (centres undefined),6,-6%,-4.8%,-1%
CCOC(=O)c1sc(Nc2cccc(C)c2C)nc1C,?,/,/,-14%
COC(=O)c1cccc(C(=O)N2CCCC(Nc3ccc(C)c(C)c3)C2)c1 (centres undefined),/,-1%,2.5%,-1%
Nc1cccnc1S(=O)(=O)c1cccc(C(F)(F)F)c1,/,0%,-0.4%,/
COc1n[nH]c(C(=O)NCc2ccccc2)c1[N+](=O)[O-],-5,5%,0.1%,4%
O=[N+]([O-])c1ccc2c(c1)nc1n2CCN(c2ccccc2)C1,-21,-5%,0.2%,-42%
CC(C)(C)NS(=O)(=O)c1ccc(Oc2ncc(C(F)(F)F)cc2Cl)cc1,-6,1%,-3.5%,26%
Cc1c(C(=O)NCC(c2ccco2)N2CCCC2)oc2ccc(Cl)cc12 (centres undefined),/,8%,0.8%,1%
CC(C)CN(C(=O)CN1CCN(c2ccccc2F)CC1)c1c(N)n(CC(C)C)c(=O)[nH]c1=O,6,10%,0.6%,-1%
CCn1cc(C(=O)N2CCCCC2)c(=O)c2cc(S(=O)(=O)N3CCC(C)CC3)ccc21,0,25%,-3.0%,0%
Cc1cc(C)n(-c2cc(C(C)(C)C)nc3c(-c4ccccc4)cnn23)n1,0,1%,0.7%,-94%

# Not all compounds are listed, so the mix of outcomes need not match the whole.
